Screening data (PubChem BioAssay)
HNF4A DNA FP: change in binding of human HNF4 alpha to DNA. AID 1224865. HNF4a-FITC DNA binding, fluorescence polarization, 1 h. 360,000 compounds, 0.3% hits. P41235. activity change, % at 10 µM; in the data active = activity change above about 30%, passing the limit was not always enough;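 also: controls were the assay level and a saturating level of protein; the project sought stronger binding though the title names inhibitors; some compounds called inactive have numbers as strong as hits; positive values seem to mean higher polarization but the record does not say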
Target sequence (P41235 whole entry, looked up): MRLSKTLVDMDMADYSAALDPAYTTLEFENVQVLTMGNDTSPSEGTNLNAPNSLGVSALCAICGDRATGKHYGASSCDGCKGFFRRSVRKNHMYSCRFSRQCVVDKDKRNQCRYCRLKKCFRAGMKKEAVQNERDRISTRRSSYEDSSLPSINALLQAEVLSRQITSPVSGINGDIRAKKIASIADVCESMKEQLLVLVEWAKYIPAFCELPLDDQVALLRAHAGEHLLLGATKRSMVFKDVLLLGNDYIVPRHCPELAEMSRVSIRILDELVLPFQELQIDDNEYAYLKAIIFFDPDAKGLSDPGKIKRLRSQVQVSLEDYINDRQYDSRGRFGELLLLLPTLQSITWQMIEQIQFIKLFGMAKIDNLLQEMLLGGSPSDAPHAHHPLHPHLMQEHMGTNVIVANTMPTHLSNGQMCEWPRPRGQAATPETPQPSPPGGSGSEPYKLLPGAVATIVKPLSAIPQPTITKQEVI
FGF22 binding: shifts melting point of recombinant human FGF22; Q9HCT0; recombinant FGF22 thermal shift, SYPRO orange fluorescence; percent of sucrose octasulfate shift, DMSO zero; calls only at 9.99 µM; 340,000 compounds, 1.5% hits;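 active = melting point raised past a set limit in the mean and every replicate; inconclusive = no clear call; three in four hits are not shown here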
UCH37 inh: blocks the human deubiquitinase UCH37. Q9Y5K5. 330,000 compounds, 0.33% hits. purified proteasome/UCH37, Ub-AMC cleavage fluorescence. inhibition, % (concentration not given with the values). AID 588478;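 active = mean of two replicates above 20%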;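 also: 0% = compound-free wells with enzyme and 100% = wells lacking proteasome; stock transfer was 100 nL into about 20 µL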
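assay system = human UCH37 enzyme supplied as purified proteasome complex | amount = proteasome at 0.15 nM in the dispensed enzyme solution | schedule = 30 min compound-proteasome preincubation then 25 min substrate reaction, room temperature | measured by = fluorescence, ex 355 nm, em 460 nm | benchmarks = no-proteasome wells (full inhibition) and compound-free wells (no inhibition)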
RanGTP-Imp inh: disruptors of Ran-importin-beta complex formation – biochemical, FRET, CFP-Ran, YFP-importin-beta, homogeneous, primary screen. AID 2216. cell-free CFP-Ran/YFP-importin-beta FRET ratio. 300,000 compounds, 1.1% hits. inhibition, % (concentration not given with the values);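 active = most replicates above 15%; inconclusive = exactly half above 15%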;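 also: 0% = DMSO wells and 100% = Ran loaded with GDP instead of GTP; wells of about 40 µL received 100 nL stock; the first replicate is given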
E coli growth: E. coli growth inhibition. Escherichia coli growth, OD600, 23 h; hits give low values. OD600 absorbance (test concentration not listed). 330,000 compounds, 0.21% hits. AID 1053175;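 active = OD600 absorbance below the run mean of sample wells minus 3.6 SD, in any replicate, cut at about 0.56 in these data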;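 also: stock transfer was 300 nL into about 60 µL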
AF4-AF9 inh: MLL-AF4/AF9 protein interaction inhibition; P42568; AlphaScreen, biotin-AF4 peptide binding to FLAG-AF9; inhibition, % at 10 µM; 350,000 compounds, 0.47% hits; AID 651704;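 active = every replicate reaching a set inhibition limit, whatever the replicate mean, cut at about 25% in these data; inconclusive = mean inhibition reaches that limit but some replicates miss it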;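 also: 0% = plate neutral control median and 100% = total signal loss; the record names both 10 and 1 µM as test concentration; the first replicate is given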
Target sequence (P42568 whole entry, looked up): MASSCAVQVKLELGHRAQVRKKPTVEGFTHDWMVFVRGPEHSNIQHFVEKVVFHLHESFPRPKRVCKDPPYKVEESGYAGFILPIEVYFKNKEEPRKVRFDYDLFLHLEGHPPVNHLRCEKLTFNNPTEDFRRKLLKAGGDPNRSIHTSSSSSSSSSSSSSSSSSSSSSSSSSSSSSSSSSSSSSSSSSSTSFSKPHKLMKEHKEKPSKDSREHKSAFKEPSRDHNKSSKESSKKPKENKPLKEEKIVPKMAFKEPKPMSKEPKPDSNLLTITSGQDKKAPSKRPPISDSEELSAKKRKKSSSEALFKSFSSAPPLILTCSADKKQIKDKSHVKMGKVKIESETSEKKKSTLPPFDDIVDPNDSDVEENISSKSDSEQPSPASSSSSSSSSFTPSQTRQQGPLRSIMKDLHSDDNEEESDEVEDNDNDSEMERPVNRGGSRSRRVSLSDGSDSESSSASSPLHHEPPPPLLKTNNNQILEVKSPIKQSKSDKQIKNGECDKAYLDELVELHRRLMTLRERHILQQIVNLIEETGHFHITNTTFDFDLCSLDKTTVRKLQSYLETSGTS
Vif TR-FRET: inhibitors of Vif binding to APOBEC3G peptide, primary screen, biochemical, TR-FRET, GST-Vif 1-94, biotin-A3G peptide, dose response retest (AID 1117319); inhibition, %; hits with a dose series show IC50 in µM; TR-FRET GST-Vif / biotin-A3G peptide binding; higher % means a stronger effect; test concentration not given here; strong numbers were not always called active; 260,000 compounds, 0.57% hits;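 active = above the screen mean plus three standard deviations and confirmed in dose response; inconclusive = results disagree or hit not tested in dose response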;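 also: Vif residues 1-94 fused to GST binding biotinylated APOBEC3G peptide 110-148; 0% = full assay without inhibitor and 100% = GST in place of GST-Vif; retest series ran down from 100 µM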
An asterisk follows results filed as active; i = inactive; ? = inconclusive; . = no result given. Not all compounds are listed; the hit share may differ from the screen's.

# | smiles | FGF22 binding | E coli growth | RanGTP-Imp inh | Vif TR-FRET | UCH37 inh | HNF4A DNA FP | AF4-AF9 inh
1 | O=C(CCNC(=O)c1ccc([N+](=O)[O-])cc1)Nc1ccc(F)cc1 | i | 0.663 | ? | 6.8% | 8.1 | -2.1 | -0.4
2 | COc1cc(C(=O)NCCc2ccc(S(=O)(=O)N3CCCC3)cc2)cc(OC)c1OC | i | 0.65 | -2.1 | 0.1% | 3.3 | -0.1 | -0.2
3 | O=C(c1cnn2c(-c3ccccc3)cc(-c3ccccc3)nc12)N1CCN(Cc2ccccc2)CC1 | i | 0.719 | 2.9 | . | -49.5 | 0.0 | -4.4
4 | CC(C)C(=O)Nc1ccc([N+](=O)[O-])c(C(F)(F)F)c1 | i | 0.632 | -2.8 | 0.4% | 5.8 | -2.9 | 12.4
5 | COc1ccc(C)cc1NC(=O)C(OC(=O)CNC(=O)c1ccc(Br)cc1)c1ccccc1 (stereo unspecified) | i | 0.666 | 5.1 | . | 2.2 | -1.2 | -7.9
6 | NC(=O)C1CC12c1ccccc1-c1ccccc12 (stereo unspecified) | i | 0.582 | -1.6 | . | 2.4 | -1.9 | -2.4
7 | CCOc1ccc2oc(C(=O)N(C)CC(=O)Nc3ccc(OCC)c(OCC)c3)c(C)c2c1 | i | 0.675 | -0.5 | -2.6% | 3.0 | 2.2 | 1.1
8 | Cc1cccc(NC(=O)CCCCCN2C(=O)c3ccccc3C2=O)n1 | . | 0.673 | -3.1 | -6.0% | 3.4 | 0.9 | .
9 | CN1C(=O)[C@H]2[C@@H](c3ccc(C(F)(F)F)cc3)N[C@]3(CCCN(Cc4ccc(F)cc4)C3=O)[C@H]2C1=O | i | . | . | -0.2% | . | -3.3 | 0.2
10 | O=C(CNc1ccc(C(F)(F)F)cc1)Nc1cccc(S(=O)(=O)N2CCCCC2)c1 | i | . | . | -2.6% | . | 0.3 | -2.0
11 | CSc1ncccc1C(=O)OCC(=O)Nc1ccc(Cl)cn1 | i | 0.706 | . | . | 2.9 | -1.3 | 1.6
12 | COc1cc(/C=C2\CCOC2=O)cc(OC)c1OC | i | 0.678 | 2.0 | 1.6% | 0.6 | 0.5 | 2.3
13 | CCOC(=O)c1c(=O)n(O)c2ccc(OC)cc2[n+]1[O-] | . | 0.721 | -4.0 | 17.8% | 0.3 | -27.6 | .
14 | CCCNC(=O)C1(C)CCN1C(=O)c1cc(C)n(C)n1 (stereo unspecified) | i | . | . | . | . | 0.1 | -2.6
15 | Cc1ccc(-c2noc(Cn3cc(S(=O)(=O)N4CCCC4)ccc3=O)n2)cc1 | i | 0.709 | . | . | 0.1 | 7.8 | -2.7
16 | CCN(CC)C(=O)CS(=O)(=O)CC(=O)Nc1cc(OCCOC)c(Cl)cc1Cl | i | 0.667 | 2.3 | -9.4% | 6.2 | -1.0 | -1.0
17 | O=C(CCNS(=O)(=O)c1ccccc1)NNC(=O)c1csc(N2CCOCC2)n1 | i | 0.695 | -2.2 | 6.4% | -0.8 | 1.4 | 2.5
18 | CCn1c(CNc2ccc(F)cc2)nnc1SCC(=O)OC1CCCCC1 | i | 0.679 | -4.2 | -0.5% | 5.5 | 2.4 | -30.1
19 | COc1ccc(NC(=O)C2CCCN(c3c4c(nc5ncnn35)CCC4)C2)cc1 (stereo unspecified) | . | 0.706 | 2.9 | -7.2% | 1.4 | -7.3 | .
20 | C=CCn1c(SCC(C)=O)nc2scc(-c3ccc(C)o3)c2c1=O | i | 0.68 | -1.7 | . | -8.9 | -4.2 | 0.3
21 | O=C(Nc1ccccc1C(=O)NCC1CCCO1)c1ccc(Cl)cc1 (stereo unspecified) | i | 0.692 | 0.6 | 1.6% | -1.1 | 2.6 | -1.0
22 | CC1(C)C(c2ccc(Cl)cc2)=[N+]([O-])C2(CCCC/C2=N\O)N1O (stereo unspecified) | . | . | 3.8 | 25.7% | . | -1.2 | .
23 | Cc1ccc(OC(=O)c2cccc(S(=O)(=O)N3CCN(C)CC3)c2)c(Br)c1 | i | 0.7 | 1.6 | 2.6% | 1.7 | -0.1 | 9.0
24 | Cc1cc(NS(=O)(=O)c2ccc(NC(=O)c3cccnc3)cc2)nc(C)n1 | i | 0.669 | -1.0 | . | 5.1 | -0.6 | 0.5
25 | O=C(CN1C(=O)C(=O)c2ccccc21)NC1CCCCC1 | . | 0.695 | -2.1 | -4.4% | 2.3 | 2.6 | .
26 | Cc1ccc(C)n1-c1ccc(NC(=O)c2ccccc2)cc1 | . | 0.706 | -4.2 | -6.6% | 3.4 | 17.5 | .
27 | CCOc1ccc(NC(=S)N2CCC(C(=O)c3ccc(OC)cc3)CC2)cc1 | i | . | . | -0.5% | . | 2.8 | 0.2
28 | CCOc1ccccc1/C=C/C(=O)c1ccc(Cl)cc1 | i | 0.713 | -1.7 | . | -0.8 | -2.9 | 9.5
29 | Cc1ccc[n+](CC(=O)Nc2ccc(C)c(C)c2)c1 | i | 0.675 | -0.9 | . | 4.3 | 1.0 | -0.7
30 | Cc1cc(C)c2c(n1)nn1c(N3CCN(c4ccccc4)CC3)cc(C)nc21 | . | 0.708 | 8.6 | 4.1% | -68.1 | -2.2 | .
31 | Nc1cccc(-c2csc(-n3ncc(C(=O)O)c3C(F)(F)F)n2)c1 | i | 0.686 | -33.4 | 3.8% | 3.1 | 0.5 | 0.8
32 | O=C1C2C3C=CC(CNS(=O)(=O)c4ccccc4[N+](=O)[O-])(O3)C2C(=O)N1c1ccccc1 (stereo unspecified) | . | 0.699 | -2.8 | 24.2% | 2.4 | 3.0 | 1.2
33 | COc1cc(S(=O)(=O)NC2CC(C)(C)NC(C)(C)C2)c(OC)cc1Cl | i | . | -4.0 | -7.9% | . | 0.8 | -3.4
34 | C[C@H](CO)N1C[C@H](C)[C@@H](CN(C)S(=O)(=O)c2ccc(F)cc2)Oc2ccc(NS(=O)(=O)c3ccccc3)cc2C1=O | i | . | . | . | 4.2 | 3.6 | 0.1
35 | COc1ccccc1C(=O)C1CCCN(C(=O)CCn2cnnn2)C1 (stereo unspecified) | i | 0.67 | -5.1 | ? | -0.7 | 2.5 | -5.0
36 | Cn1c(SCC(=O)OC2CCCCC2)nnc1-c1ccco1 | . | 0.712 | 7.2 | -0.4% | 2.9 | 1.5 | .
37 | O=C(Nc1cccc(Cl)c1)/C(=C\c1cccnc1)NC(=O)c1ccco1 | i | 0.713 | -0.2 | 5.8% | 2.1 | -0.8 | 0.6
38 | O=C(OCc1ccccc1)Oc1cncc(C(=O)O)c1 | . | 0.666 | 3.2 | 21.7% | 3.7 | -5.1 | .
39 | CCc1ccc(NC(=O)CSCc2ccc(C(=O)O)cc2)cc1 | i | 0.695 | -1.5 | 2.7% | -1.6 | 4.3 | -2.7
40 | COC(=O)CSc1nc(C)cc(C)c1C#N | i | 0.646 | 9.9 | . | -2.2 | -0.9 | -1.2
41 | CCCCN(C(=O)C1CCCO1)c1c(N)n(CCC)c(=O)[nH]c1=O (stereo unspecified) | i | 0.676 | . | 2.3% | 1.8 | 1.9 | -2.1
42 | O=C(Nc1ccc2c(c1)nc1n2CCOC1)c1ccco1 | . | 0.702 | 2.7 | 4.6% | 1.1 | 3.3 | .
43 | N/C(=N\OC(=O)COc1ccc(Cl)cc1Br)c1ccncc1 | i | 0.714 | . | -0.6% | 1.4 | -3.2 | -1.8
44 | CC1C(=O)N2CCCc3cc(NC(=O)COc4ccc(Cl)cc4)cc1c32 (stereo unspecified) | i | 0.678 | -2.1 | 1.6% | 3.1 | 0.0 | -26.6
45 | COC(=O)CCC(C)N1CCC(Oc2ccc(C(=O)N3CCCC3)cc2)CC1 (stereo unspecified) | i | 0.646 | 3.6 | . | 0.0 | 1.4 | 0.4
46 | CCc1nccn1CCC(=O)NC1CC(C)(C)Cc2c1cnn2-c1cccc(F)c1 (stereo unspecified) | i | 0.7 | 0.8 | -2.2% | -3.7 | 4.1 | 0.9
47 | NS(=O)(=O)c1ccc(CCNC(=O)C2CCC(Cn3c(=S)[nH]c4ccccc4c3=O)CC2)cc1 (stereo unspecified) | i | 0.654 | -0.7 | -7.6% | -0.3 | 21.1 | 0.2
48 | COc1cc2c(C(=O)N3CCN(C)CC3)c(CSc3ccccc3)n(C)c2cc1Br | . | 0.691 | 0.2 | 5.5% | 3.2 | -0.4 | .
49 | O=C(CSc1nc(=O)n2ccccc2n1)Nc1cccc2ccccc12 | i | 0.634 | 1.7 | -1.4% | 7.1 | 3.9 | -8.7
50 | O=C(NCC(=O)N1CCN(c2ccc(C(F)(F)F)cn2)CC1)c1ccc(Br)o1 | i | 0.669 | . | 6.7% | -3.5 | 0.5 | 0.1

Continuation:
# | smiles | FGF22 binding | E coli growth | RanGTP-Imp inh | Vif TR-FRET | UCH37 inh | HNF4A DNA FP | AF4-AF9 inh
51 | CCCCCCCCNCCS(=O)(=O)NCCCCCCCC | i | . | . | . | . | 4.7 | -9.1
52 | COc1ccc(C2(C)NC(=O)N(CC(=O)c3cc(C)n(C4CC4)c3C)C2=O)cc1 (stereo unspecified) | i | 0.663 | . | 1.7% | 3.8 | -0.9 | 0.5
53 | Cn1c(SCC(=O)Nc2ccc3c(c2)OCCO3)nnc1C(F)(F)F | i | 0.715 | . | . | 0.8 | -3.9 | -2.6
54 | Cc1ccc(NC(=S)NC(C)CCc2ccccc2)cc1C (stereo unspecified) | i | 0.634 | ? | . | 1.6 | -2.7 | 6.8
55 | CNc1ccc2ncc(-c3ccc(OC)c(OC)c3)n2n1 | i | . | . | . | . | -1.4 | -5.5
56 | COc1ccc(CNC(=O)COc2ccc(S(=O)(=O)N3CCOCC3)cc2C)cc1 | i | 0.632 | -4.7 | . | 0.0 | 3.3 | 1.4
57 | Cc1sc2ncn(CC(=O)NCCCOC(C)C)c(=O)c2c1S(=O)(=O)N1CCN(c2ncccn2)CC1 | i | 0.662 | -1.2 | -2.6% | -0.5 | 0.6 | -0.9
58 | COc1cccc(/C=N/Nc2ccc(S(=O)(=O)O)cc2)c1O | . | . | -8.3 | 16.9% | . | 2.2 | .
59 | O=C(CC1C(=O)NCCN1Cc1ccoc1)NCc1cccc(OC(F)(F)F)c1 (stereo unspecified) | i | 0.718 | 2.7 | 10.4% | -0.6 | 0.4 | -0.9
60 | Cc1ccc(NC(=O)CN2C(=O)CC(C)S(=O)(=O)c3ccccc32)cc1 (stereo unspecified) | i | 0.65 | 2.3 | -6.8% | -0.9 | -2.8 | -1.9
61 | COc1cc(C(=O)/C=C/c2cccnc2)ccc1O | i | 0.625 | 1.1 | . | 7.2 | 3.3 | 0.2
62 | CC12CCC(=O)C=C1CCC1C2C(=O)CC2(C)C1CC[C@]2(O)C(=O)CO (stereo partly specified) | i | 0.692 | 3.0 | -6.4% | -0.9 | 4.7 | -1.9
63 | CC1(Cc2ccc(Cl)s2)C(=O)Nc2c(Cl)ccc(Cl)c21 (stereo unspecified) | i | . | . | . | . | 0.7 | 1.6
64 | COc1ccc(CNC(=O)c2nnn(Cc3ccc(OC)cc3)c2N)cc1 | . | 0.732 | 3.1 | 3.5% | 1.0 | 3.2 | -3.7
65 | COc1ccc(NC(=O)CCNC(=O)Cn2ccc3ccccc3c2=O)cc1OC | . | 0.692 | ? | . | 1.6 | 1.1 | .
66 | C=CCNC(=O)C1CC(=O)N(c2ccc(OCc3ccccc3Cl)cc2)C1 (stereo unspecified) | i | 0.669 | -1.6 | . | 2.8 | -0.2 | -7.2
